# Screening data as filed in PubChem BioAssay.
# Insulin prom inh: TRM-6 insulin promoter activity inhibition. AID 1273. 130,000 compounds, 0.9% hits. TRM-6 cells (human fetal islet line), insulin promoter-eGFP reporter, imaging; reporter expression induced with tamoxifen. inhibition, % at 2 µM;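 active = inhibition above the mean plus 3 SD, with well images judged a real hit on visual review, cut at about 60% in these data, passing the limit was not always enough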
# GALR2 agonist: agonists of human galanin receptor 2 (GALR2) | activation, %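 (tested at 5 µM)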 | 140,000 compounds, 0.48% hits | O43603 | GALR2-expressing cells, agonist activation read-out;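 active = above mean plus 3 SD of all compounds, about 5% in these data, not always enough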;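 also: 0% = vehicle buffer wells and 100% = reference agonist at full effect; tested in CHO reporter cells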
# Target sequence (O43603 whole entry, looked up): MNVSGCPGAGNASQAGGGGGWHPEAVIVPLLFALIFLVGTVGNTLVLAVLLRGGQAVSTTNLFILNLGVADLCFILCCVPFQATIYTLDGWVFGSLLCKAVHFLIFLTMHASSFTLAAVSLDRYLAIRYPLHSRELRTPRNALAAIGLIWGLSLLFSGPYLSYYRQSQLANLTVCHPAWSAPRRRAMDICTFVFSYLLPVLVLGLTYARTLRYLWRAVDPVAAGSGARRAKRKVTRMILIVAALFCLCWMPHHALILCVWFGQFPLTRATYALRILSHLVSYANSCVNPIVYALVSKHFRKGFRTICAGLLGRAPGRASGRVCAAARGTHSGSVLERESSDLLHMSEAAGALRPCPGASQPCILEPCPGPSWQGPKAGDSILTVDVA
# RGS16-Gao HTS: modulates binding between human RGS16 and Galphao; AID 1441; 220,000 compounds, 0.38% hits; binding response (% of control), % at 10 µM; bead-based flow cytometry RGS16-Galphao binding, fluorescence; actives lie on both sides; O15492+P09471;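 active = below 25% or above 175%, edge rows of some plates excepted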;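 also: Galphao activated by GDP with aluminum fluoride before binding; 100% = wells without compound and 0% = beads without RGS; some results beyond the cut were filed as inactive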
# Target sequence (O15492 whole entry, looked up): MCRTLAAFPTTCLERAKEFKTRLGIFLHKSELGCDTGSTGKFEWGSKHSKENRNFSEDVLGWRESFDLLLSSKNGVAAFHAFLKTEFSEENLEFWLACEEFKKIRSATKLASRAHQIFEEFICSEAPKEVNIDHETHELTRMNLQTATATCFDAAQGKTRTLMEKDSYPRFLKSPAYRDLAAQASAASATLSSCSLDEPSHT
# Target sequence (P09471 whole entry, looked up): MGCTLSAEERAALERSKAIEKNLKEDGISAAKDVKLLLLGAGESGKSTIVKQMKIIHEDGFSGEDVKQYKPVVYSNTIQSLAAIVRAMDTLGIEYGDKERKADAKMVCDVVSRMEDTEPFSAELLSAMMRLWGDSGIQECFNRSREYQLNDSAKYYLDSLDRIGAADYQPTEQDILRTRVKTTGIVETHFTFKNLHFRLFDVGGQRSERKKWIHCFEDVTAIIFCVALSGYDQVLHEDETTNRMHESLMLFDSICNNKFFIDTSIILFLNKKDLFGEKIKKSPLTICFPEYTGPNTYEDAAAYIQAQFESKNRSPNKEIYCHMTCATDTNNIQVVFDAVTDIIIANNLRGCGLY
# HSV replic up: HSV replication enhancement; HSV replication augmentation in cells, fold increase; maximum fold increase; 220,000 compounds, 0.005% hits;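 active = peak rise of 1.5-fold or more in the series; tested in PC3 cells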;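 also: first round at 10 µM; read as green reporter fluorescence; hits show the peak of a series up to 25 µM; 1 = signal of infected wells without compound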
# PKD1 inh: PKD1 (human) kinase inhibition. PKD1 kinase fluorescence polarization assay. inhibition, %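 (about 10 µM by stock and volumes)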. 200,000 compounds, 0.056% hits. AID 797;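 active = inhibition of 50% or more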;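 also: controls were vehicle for no effect and a reference inhibitor for full effect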
# Insulin prom inh cell count: recorded beside Insulin prom inh, whose call it bears; normalized cell count, %; measured here: cell count, toxicity; reference of the scale not given here;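 cells exposed to compound for 48 h; stained nuclei by imaging scaled within each plate; lower means fewer cells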
# HSV replic up primary fold: also measured in HSV replic up; calls as there; fold increase; compound at 10 µM; measured here: primary screen fold increase 10 uM; tested in PC3 cells;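 GFP signal in the first replicate; 1 = infected wells without compound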
# Active calls of the source: *; i = inactive; . = no result given.
# Sample of the layout:
Structure	Insulin prom inh	Insulin prom inh cell count	GALR2 agonist	RGS16-Gao HTS	HSV replic up	HSV replic up primary fold	PKD1 inh
O=C(CSC1=N/C(=C/c2ccco2)C(=O)N1c1ccc(OC(F)F)cc1)NC1CCS(=O)(=O)C1 (centres undefined)	.	.	.	96.7	i	1.09	4.6
Cc1sc2nc(C(C)C)nc(SCC(=O)N3c4ccccc4CC3C)c2c1C (centres undefined)	0.0	73.1	-0.5	92.8	i	0.9	10.0
COc1ccccc1C1(O)CC2CCC(C1)N2S(=O)(=O)c1ccc(C(C)=O)cc1 (centres undefined)	25.0	77.6	1.0	98.9	i	0.93	5.3

# The listing, previewed entries included:
Structure	Insulin prom inh	Insulin prom inh cell count	GALR2 agonist	RGS16-Gao HTS	HSV replic up	HSV replic up primary fold	PKD1 inh
O=C(CSC1=N/C(=C/c2ccco2)C(=O)N1c1ccc(OC(F)F)cc1)NC1CCS(=O)(=O)C1 (centres undefined)	.	.	.	96.7	i	1.09	4.6
Cc1sc2nc(C(C)C)nc(SCC(=O)N3c4ccccc4CC3C)c2c1C (centres undefined)	0.0	73.1	-0.5	92.8	i	0.9	10.0
COc1ccccc1C1(O)CC2CCC(C1)N2S(=O)(=O)c1ccc(C(C)=O)cc1 (centres undefined)	25.0	77.6	1.0	98.9	i	0.93	5.3
CCN(CC)c1ccc(/C=N/NC(=O)C(O)(c2ccccc2)c2ccccc2)o1	-116.1	2.7	-1.7	85.6	i	0.95	-7.0
O=C(CCCn1c(SCC(=O)c2ccc(Cl)cc2)nc2ccccc2c1=O)NCc1ccco1	27.8	69.7	-1.1	162.1	i	0.95	8.2
CCOc1cc(/C=C2/C(=O)N(c3ccccc3)N=C2C)ccc1OC(=O)c1cccs1	-26.7	100.9	-1.2	96.3	i	1.27	12.0
CCC(c1nnnn1C1CCCC1)N(Cc1cccs1)Cc1cc2cccc(C)c2[nH]c1=O (centres undefined)	-38.9	147.1	-1.1	99.3	i	0.95	-4.3
COc1ccc(/C=N/n2c(SC)nnc2-c2ccccc2)c(OC)c1OC	28.6	97.6	0.2	104.5	i	0.7	4.7
COc1cc2c(cc1OC)CN(C(=O)c1ccc3nc[nH]c3c1)CC2	.	.	.	98.2	i	0.81	-4.8
CC(C)=CCC/C(C)=C/Cc1c(O)ccc(C(=O)/C=C/c2ccc(O)cc2)c1O	-4.8	111.9	0.3	106.3	i	0.78	-13.4
NC(=O)c1cc(NC(=O)c2cc(Br)c(Br)s2)cc(C(N)=O)c1	.	.	.	99.7	i	1	15.8
CCCCCCSc1nc(O)c(C2OC(=O)c3c2ccc(OC)c3OC)c(=O)n1CC (centres undefined)	5.7	116.0	-1.3	102.3	i	0.94	0.2
CCOC(=O)c1cncc(NC(=O)c2ccccc2)c1	.	.	-1.4	105.1	i	0.99	9.9
Cc1cccc(NC(=O)C2CCCN(C(=O)Nc3ccccc3)C2)c1C (centres undefined)	-5.4	118.0	-2.9	98.2	i	0.9	2.0
COc1cccc(C(=O)N(Cc2ccco2)Cc2cc3cccc(C)c3[nH]c2=O)c1	0.0	89.3	-0.8	102.6	i	0.69	-13.1
NS(=O)(=O)c1ccc(NC(=S)NCc2cccs2)cc1	.	.	.	108.3	i	0.98	-4.7
CC(NC(=O)C1CCCN(C(=O)N(C)C)C1)c1ccccc1 (centres undefined)	32.1	95.9	-1.5	95.0	i	1.07	-5.0
O=C(COc1ccc2ccccc2c1Br)NCc1ccccn1	.	.	.	98.4	i	0.97	-4.4
O=C(Cn1cc(/C=N/NC(=O)c2ccccc2Br)c2ccccc21)Nc1ccc(F)cc1	2.9	112.0	0.3	100.0	i	0.93	5.3
CCOc1ccc(NC(=O)CNc2ccc(C)cc2Cl)cc1	-1.4	112.1	-3.1	99.4	i	0.9	1.4
CN(C)c1nc(OCC(=O)NC(C)(C)C)nc(N(C)C)n1	-61.3	192.0	-2.8	105.4	i	0.92	-10.1
Cc1cc(C)nc(Sc2nc(C)nc3c2oc2ccccc23)n1	.	.	-1.2	87.7	i	1.15	-4.6
O=C(CSc1nnnn1-c1ccc(F)cc1)NCc1cccs1	.	.	.	117.0	i	0.93	1.4
Cc1ccc2oc(=O)n(CC(=O)OCCC(C)C)c2c1	.	.	.	99.9	i	1.02	.
CCCCNC(=O)C1c2cc(OC)c(OC)cc2C(=O)N(C)C1c1ccc(OC)cc1 (centres undefined)	.	.	-1.2	103.6	i	0.82	0.5
CCc1ccc(-c2nc(CN3CCCC(C(=O)NCCc4ccc(OC)c(OC)c4)C3)c(C)o2)cc1 (centres undefined)	-121.4	178.5	-2.0	137.9	i	1.27	0.4
CN(C)c1ccc(C(=O)n2nnc3ccccc32)cc1	-30.0	125.3	0.8	105.0	i	0.82	-3.9
CCC(C)(C(=O)NC1CCCC1)N(C)C(=O)Cc1c[nH]c2ccccc12 (centres undefined)	0.0	111.2	.	98.2	i	1	-12.4
COC(=O)CCCCC1SCC(NC(=O)OC)C1NC(=O)OC (centres undefined)	30.6	47.3	-2.3	100.1	i	1.03	5.9
COc1ccccc1CNC(=O)C1CCN(S(C)(=O)=O)CC1	33.3	71.2	-0.9	95.8	i	0.96	0.4
NC(N)=NNC(=O)c1ccccc1Cl	-21.4	117.7	-0.6	99.4	i	0.92	5.7
O=C(NCc1ccncc1)NC1CCCCC1	.	.	.	78.1	i	0.93	8.8
CC(=O)Nc1ccc(N2C(=O)CC(Sc3nc4ccccc4s3)C2=O)cc1 (centres undefined)	.	.	.	101.4	i	0.92	1.1
COc1ccc(-n2cc(CNCc3cnc4ccccn34)c(-c3cccc(F)c3)n2)cc1	.	.	.	89.5	i	0.85	7.1
Cc1ccc(NC(=O)/C(=C\c2cccnc2)NC(=O)c2ccco2)cc1	-41.7	112.4	-1.8	97.6	i	0.95	-4.9
CCOC(=O)c1cn(Cc2ccc(Br)cc2)nn1	.	.	0.9	99.1	i	1.07	10.7
Cc1cc(C)n2nc(SCc3nnc(SCc4ccccc4C)s3)nc2n1	11.9	75.3	-1.6	99.8	i	1.09	-9.0
Clc1ccc(CSc2ncn(-c3ccccc3)n2)cc1	3.2	75.2	-1.3	193.9	i	0.91	-12.2
CC([NH2+][O-])C(C)(C)NO (centres undefined)	18.4	77.8	-0.5	103.5	i	1.15	-4.7
O=C(NCC1CCCO1)C1CCCN1C(=O)Nc1ccc(Cl)cc1 (centres undefined)	.	.	.	104.2	i	1.06	2.7

# Single entries from the list.
# `COc1ccc(-n2cc(CNCc3cnc4ccccn34)c(-c3cccc(F)c3)n2)cc1` in RGS16-Gao HTS is entered as 89.5
# `CC([NH2+][O-])C(C)(C)NO` (centres undefined) in GALR2 agonist is entered as -0.5
# `CCOC(=O)c1cn(Cc2ccc(Br)cc2)nn1` in PKD1 inh is entered as 10.7
# `Cc1cc(C)n2nc(SCc3nnc(SCc4ccccc4C)s3)nc2n1` in HSV replic up primary fold is entered as 1.09
# `CC(=O)Nc1ccc(N2C(=O)CC(Sc3nc4ccccc4s3)C2=O)cc1` (centres undefined) in HSV replic up primary fold is entered as 0.92
# `O=C(NCc1ccncc1)NC1CCCCC1` in PKD1 inh is entered as 8.8

# (more compounds)
Structure	Insulin prom inh	Insulin prom inh cell count	GALR2 agonist	RGS16-Gao HTS	HSV replic up	HSV replic up primary fold	PKD1 inh
CC(=O)c1cccc(NC(=O)c2ccc(NS(C)(=O)=O)cc2)c1	0.0	121.5	-1.1	101.8	i	0.89	8.9
COC(=O)CCC(=O)Nc1ccc(C)cc1OC(=O)CCC(=O)OC	-28.6	134.6	-1.8	98.3	i	0.75	0.9
O=C(COC(=O)c1cnc(Cl)c(Cl)c1)NCc1ccco1	.	.	.	92.5	i	0.92	-4.9
CCCCc1cn([C@@H](CCCCNC(=O)OC(C)(C)C)C(=O)N2CCN(C(=O)OC(C)(C)C)CC2)nn1	.	.	.	93.8	i	0.92	-1.8
COc1ccc(NC(=O)CSc2nnc(-c3ccccn3)n2N)cc1	3.2	108.1	-0.6	27.0	i	1	1.8
CCOc1cc(-c2cc(-c3ccccc3)nc(N)c2C#N)ccc1O	-3.1	69.4	-2.2	205.3	i	0.76	-2.1
COc1ccc(NC(=O)CSc2nc3c(c(=O)[nH]2)CCC3)cc1OC	.	.	-1.3	87.9	i	1.06	-13.5
COc1cccc(Cn2nnc3c(=O)[nH]c(C4CCCN(C(=O)c5ccccc5Cl)C4)nc32)c1 (centres undefined)	3.0	118.5	-0.9	115.6	i	0.993	-4.0
CC(=O)Nc1ccc(C(=O)Nc2nc(-c3cc(C)n(Cc4ccccc4)c3C)cs2)cc1	13.3	88.7	-0.1	95.4	i	1.1	-8.6
Cc1sc(N)c(C#N)c1C	-3.9	71.6	-1.5	133.8	i	1.15	-13.1
O=C1CC(c2ccccc2)n2nc(NS(=O)(=O)c3ccccc3)nc2N1 (centres undefined)	.	.	-2.4	130.4	i	0.84	-11.9
COc1ccc(-c2noc(-c3ccccc3Cl)n2)cc1OC	-35.5	116.8	-4.0	99.6	i	1	-18.8
COC(=O)CCSc1nccn1Cc1ccccc1	-8.1	110.2	-1.1	87.3	i	0.9	3.9
COC(=O)c1ccc(NC(=O)c2ccc(NC(=O)C3CCCO3)cc2)cc1 (centres undefined)	-28.2	145.3	.	102.4	i	1.01	1.9
Cc1ccc(Cn2cccc(NC(=O)CCC3CCCC3)c2=O)cc1	.	.	.	100.7	i	0.93	.
O=C(OCc1cncs1)c1ccccc1Cl	.	.	.	101.0	i	0.86	-4.8
O=C(Nc1ccc2c(c1)OCCO2)c1cnc2ccccn2c1=O	-137.5	77.7	-2.8	.	i	0.85	-3.8
CCN(CC)S(=O)(=O)c1cccc(-n2c(O)c(C=Nc3ccccc3C(=O)O)c3ccccc3c2=O)c1	.	.	.	106.0	i	0.87	.
CCCn1c(=O)c2c(C(F)(F)F)cc(-c3ccco3)nc2n(CCC)c1=O	43.2	96.9	-1.0	91.5	i	0.92	-7.2
Cc1sc(NC(=O)COc2ccccc2)c(C#N)c1C	8.3	128.4	.	95.5	i	0.98	-8.6
O=C1c2ccccc2NC(c2ccccc2Br)N1CCCN1CCOCC1 (centres undefined)	.	.	0.3	133.7	i	1.04	-1.1
Cc1cccc(NC(=S)NCc2ccncc2)c1C	-26.7	73.2	0.1	96.6	i	0.99	1.9
COc1cc(/C=N/OCC(=O)Nc2cc(C)on2)ccc1OCc1ccccc1	3.7	101.5	0.3	154.8	i	0.96	-8.4
CCC(C)(C)NC(=O)C(c1cccn1C)N(C(=O)Cn1nnc2ccccc21)c1ccc(F)cc1 (centres undefined)	-41.7	134.2	-0.2	96.6	i	1	5.0
O=C(O)CCCC(=O)NCCCCc1ccccc1	18.2	176.5	-2.2	100.5	i	0.99	3.0
CC(C)(C)C(=O)Nc1ccc(N2CCN(S(C)(=O)=O)CC2)cc1	23.5	70.6	.	104.9	i	1	-9.1
O=C(Cn1c(-c2ccc(Cl)cc2)noc1=O)N1CCN(c2ccccc2F)CC1	.	.	-1.1	103.9	i	0.81	8.7
COC(=O)CSc1nc(C(C)C)nc2ccccc12	57.1	90.5	-0.5	128.5	i	0.91	1.3
COc1ccc2c(COC(=O)CNC(=O)C34CC5CC(CC(C5)C3)C4)cc(=O)oc2c1	-3.3	89.0	-0.1	90.9	i	0.9	-1.5
CN(C(=O)c1ccc2c(=O)n3c(nc2c1)CCCCC3)c1ccccc1	-416.7	42.5	-2.2	99.6	i	1.03	4.8
COc1ccccc1-n1c(SCC(=O)N2CCCCC2)nnc1-c1ccccc1O	.	.	-0.8	102.5	i	0.81	-8.7
CC(C(=O)NCCS(=O)(=O)c1ccc(Cl)cc1)S(=O)(=O)c1ccccc1 (centres undefined)	.	.	.	100.9	i	1.04	8.9
CC[C@H](C)[C@H](NC(N)=O)C(=O)Nc1ccccc1F	-33.3	95.6	.	102.6	i	1.14	-4.7
CC(=O)NCC(=O)N(c1ccccc1)C1(C(=O)NC2CCCCC2)CCCCC1	-57.1	78.8	-2.8	103.8	i	1.04	6.3
Cc1cc(OCC(=O)NCc2nc(-c3ccccc3)no2)c(C)cc1Br	61.9	129.8	-2.3	108.4	i	0.91	-4.3
CCOC(=O)CNC(=O)c1cnn2cccnc12	-24.2	131.0	-1.9	98.7	i	0.92	-7.6
O=[N+]([O-])c1cc(Cl)ccc1-c1nc(-c2ccncc2)no1	.	.	.	100.1	i	0.91	10.8
Cn1c(=O)c2c([nH]c(OCc3ccc(Cl)cc3Cl)[n+]2Cc2ccc(F)cc2)n(C)c1=O	.	.	.	90.7	i	1.06	.
Cc1noc(NS(=O)(=O)c2ccc(NC(=O)c3ccc(N4C(=O)c5ccccc5C4=O)cc3)cc2)c1C	-28.6	126.5	.	108.3	i	0.88	2.5
